Source: PubChem BioAssay
GCN5L2 inh – GCN5L2 (KAT2A) acetyltransferase inhibition; Q92830; GCN5L2 HAT assay, ThioGlo1 CoA-SH fluorescence; Potency, µM (titrated, usually from 58.9 µM), for the others: at the highest dose activity change, negative = inhibition, usual class: inhibitors; 390,000 tested, 0.21% active; AID 504327
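GCN5L2 (20 nM) in 50mM HEPES pH 7.5, 0.1mM EDTA, 0.01% Tween-20 preincubated 15 min with compounds at room temperature. Reaction started with H3(1-25) 75uM, acetyl-CoA 70uM, ThioGlo1 50uM; CoA-thiol fluorescence (Ex340/Em540) read at 0 and 20 min.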
FEN1 inhibitor – human FEN1 inhibition; Recombinant FEN1 flap cleavage, fluorescence, 15 min; P39748; 390,000 tested, 0.35% active; Potency, µM (series often up to 114 µM), inactives show at the top dose activity change, negative = inhibition, usual class: inhibitors; also: nearly all actives have a fitted effect of over 65% in size
Target sequence (P39748 whole entry, looked up): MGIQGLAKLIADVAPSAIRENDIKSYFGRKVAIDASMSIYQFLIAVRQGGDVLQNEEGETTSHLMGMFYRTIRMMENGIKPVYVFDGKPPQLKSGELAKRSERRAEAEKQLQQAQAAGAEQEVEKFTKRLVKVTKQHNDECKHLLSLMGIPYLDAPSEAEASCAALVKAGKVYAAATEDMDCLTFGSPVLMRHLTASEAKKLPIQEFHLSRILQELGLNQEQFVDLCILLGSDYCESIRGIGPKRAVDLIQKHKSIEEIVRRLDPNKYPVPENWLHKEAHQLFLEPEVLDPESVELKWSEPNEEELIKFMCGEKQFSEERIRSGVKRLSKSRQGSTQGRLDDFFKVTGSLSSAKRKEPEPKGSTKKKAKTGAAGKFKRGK
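Potency values derive from four-parameter Hill fits of normalized qHTS data. The reaction used 10 nM FEN1 preincubated 15 min at room temperature with compound, then 50 nM DNA substrate, read at 0 and 15 min.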
* hit, by the source's call; ? = inconclusive; . = no result given; & = joins results of further samples; [ ] = remark or other dose. Calls follow the shape of the dose curve; as a rule, active = well fitted curve in the direction sought with a large enough effect; inconclusive = small, poorly fitted or top-dose-only effect, or another doubt; inactive = no such curve, though single readings can be large; an effect the other way counts as inactive or inconclusive. % is scaled to controls: 0 for no effect and ±100 for the full control effect; potency is read from the fitted curve at half-maximal effect.

Second line of a record: FEN1 inhibitor | GCN5L2 inh
CC(C)(C)CC(C)(C)NC(=O)c1ccccc1
    17% | -1%
COc1ccc(OC(=O)CCN2C(=O)C3C4C=CC(C4)C3C2=O)cc1 (configuration not stated)
    4% | -7%
CC(=O)Nc1ccc(S(=O)(=O)NCCSCc2ccco2)cc1
    -12% | -6%
COc1ccccc1OCCSc1nc(N)cc(N)n1
    -9% | -2%
Cc1cccc(C)c1NC(=O)CSCCO
    -2% | 0%
CC1=C(C(=O)Nc2ccc(Cl)cc2)C(c2cccs2)n2nc(SCc3cccc(C)c3)nc2N1 (configuration not stated)
    -5% | -3%
O=C1CSC(c2ccccc2)N1CC12CC3CC(CC(O)(C3)C1)C2 (configuration not stated)
    -13% | ?
Cc1ccc(NS(=O)(=O)c2ccc3c(c2)C(=O)c2ccccc2C3=O)c(C)c1
    2% | -5%
COc1cc(OC)cc(C(=O)NC(C)c2cnn(-c3ccccc3C)c2C)c1 (configuration not stated)
    19% | 3%
COc1ccc(S(=O)(=O)Nc2cc3c(C(=O)OC(C)C)c(C)oc3c3ccccc23)cc1
    -36% | -4%
O=C(c1ccccc1)N1CCN(c2ccc(N3CCOCC3)nn2)CC1
    -1% | -2%
O=C(c1ccccc1)N1CCN(C(=O)c2cc3nc(-c4ccccc4)cc(C(F)(F)F)n3n2)CC1
    3% | -8%
CC1CN(C(=O)COC(=O)c2ccc(C#N)cc2)CC(C)O1 (configuration not stated)
    -9% | -3%
CC(C)OC(=O)C1CC(C)(O)C(=O)C(C(=O)OC(C)C)C1c1ccc([N+](=O)[O-])cc1 (configuration not stated)
    -6% | -2%
Cc1ccc(C)c(-c2ccc(=O)n(C(C)C(=O)Nc3ccccc3C(F)(F)F)n2)c1 (configuration not stated)
    5% | -12%
Cc1ccccc1S(=O)(=O)/N=C(/Nc1nc2ccccc2s1)c1ccccc1
    15% | -3%
CC1(C)CC(NC(=O)c2cc(COc3cccc(C(F)(F)F)c3)on2)CCO1 (configuration not stated)
    -19% | -7%
COc1ccc(NC(=O)CSCc2cc(=O)n3c(C)csc3n2)cc1
    2% | -5%
COC(=O)CSc1nc2ccccc2o1
    -13% | 39%[activator]
COc1cc(OC)cc(C(=O)NCC(c2cccs2)S(=O)(=O)c2ccc(F)c(C)c2)c1 (configuration not stated)
    -5% | -6%
CS(=O)(=O)c1sc(C(=O)NC(=S)Nc2ccc(OC(F)(F)F)cc2)c2c1C=CCC2
    -20% | -4%
COc1ccccc1CNC(=O)C1CCC(CNC(=O)[C@@H]2Cc3ccccc3CN2)CC1 (some centres not stated)
    20% | -15%
Cc1cc(C)c(/C=C/c2onc(C)c2S(=O)(=O)N2CCC(C(=O)N3CCN(c4ccc(Cl)cc4)CC3)CC2)c(C)c1
    -6% | -12%
COc1ccccc1CNC(=O)CCS(=O)(=O)c1cccc2nonc12
    -9% | 0%
COc1ccc(N2CCN(S(=O)(=O)c3cccc(C(F)(F)F)c3)CC2)cc1
    3% | -3%
COc1ccc(C2=NN(C(=O)CSc3nnc(C)c(=O)n3N)C(c3ccco3)C2)cc1 (configuration not stated)
    -1% | -2%
CCCn1c(SCC(=O)N2CC(=O)Nc3ccccc32)n[nH]c1=O
    -11% | -3%
CCc1cc(C(=O)Nc2c(C)nn(Cc3ccc(C)cc3)c2C)no1
    -2% | -2%
C=CC[n+]1ccn(-c2nc3ccccc3nc2[N-]S(=O)(=O)c2cccs2)c1
    -9% | 1%
O=C(Nc1cccc2c1C(=O)NC2=O)c1cccc(N2C(=O)CCC2=O)c1
    -20% | -6%
COc1ccc(NC(=O)c2c(NCc3cccc(OC)c3)sc3c2CCC3)cc1
    -10% | -2%
CCc1nn(CCCC(=O)NCc2ccco2)c(=O)c2cc3occc3n12
    -10% | -17%
CCOC(=O)c1cc(C#N)c(SCC(=O)c2cc(C#N)c(SC)nc2C)nc1C
    0% | -6%
CC(Sc1nc2cc(Cl)ccc2s1)C(=O)Nc1cccc(S(=O)(=O)N2CCOCC2)c1 (configuration not stated)
    -5% | -6%
COc1ccc2nc(NC(=O)c3cccc(S(=O)(=O)N4CCOCC4)c3)sc2c1
    -17% | ?
Cc1ccc(S(=O)(=O)NC(C(=O)OCC(=O)NC(=O)c2cccn2C)C(C)C)cc1 (configuration not stated)
    -8% | -5%
O=C(COC(=O)c1cccs1)Nc1ccccc1[N+](=O)[O-]
    -5% | -4%
CCOC(=O)C1(Cc2cccc(OC)c2)CCN(C2CCOCC2)CC1
    -3% | -8%
O=C(CN1CCCCC1)Nc1ccc(Br)cc1[N+](=O)[O-]
    -5% | -21%
N#C/C(=C\c1ccc(Sc2ccccc2)o1)c1nc2ccccc2[nH]1
    ? | 0%
O=C1c2ccccc2C(Nc2ccc3c(c2)OCO3)N1Cc1ccco1 (configuration not stated)
    -10% | -6%
Cc1ccc(C(=O)Nc2ccc3c(c2)OCO3)cc1S(=O)(=O)N1CCCCC1
    -8% | -3%
CSc1nc2ccc(NS(=O)(=O)c3ccc([N+](=O)[O-])cc3)cc2s1
    -7% | -1%
NC(=O)C1CCN(Cc2nc3c(Br)cc(Br)cc3c(=O)[nH]2)CC1
    4% | -6%
O=C(CSc1ncccn1)N1CCN(S(=O)(=O)c2ccccc2)CC1
    0% | -9%
COc1cccc(NC(=S)N2CCN(S(C)(=O)=O)CC2)c1
    1% | 0%
Cc1ccc(OC[C@H](O)[C@H](C)NC(C)C)c2c1CCC2
    -8% | -13%
CCC(CC)C(=O)Nc1ccc(Sc2ccc([N+](=O)[O-])cc2)cc1
    -2% | 0%
Cn1cccc1C(=O)NC(=O)COC(=O)CC12CC3CC(CC(Br)(C3)C1)C2
    -21% | -28%
COc1ccc(NC(=O)CSc2nc3ccccc3n2-c2ccccc2)c([N+](=O)[O-])c1
    -18% | -12%

Further records
Second line of a record: FEN1 inhibitor | GCN5L2 inh
CC1(C)C(=O)OC(c2cccn2-c2ccc([N+](=O)[O-])cc2)C2(CCCCC2)C1=O (configuration not stated)
    -4% | 2%
CN1CCN(Cc2nc3ccccc3c(=O)n2Cc2nc(-c3cccc([N+](=O)[O-])c3)cs2)CC1
    -22% | -8%
CCOc1cc(/C=N\NC(=O)OC)ccc1OC(=O)c1ccco1
    -12% | -4%
Cc1ccc(N(C(C)C(=O)NCc2ccncc2)S(C)(=O)=O)cc1C (configuration not stated)
    4% | -4%
CCN(CC)CCCNC(=O)c1cc(Sc2nnc(C)s2)nc2ccccc12
    -2% | -1%
CCC(C(=O)NC1CCCC1)n1nc(C)n2c(cc3occc32)c1=O (configuration not stated)
    17% | -6%
CC(C)CCn1c(=O)c2sccc2n2c(CCCC(=O)NC3CCC(C)CC3)nnc12 (configuration not stated)
    7% | -3%
COc1ccccc1CNC(=O)c1ccc2c(=O)n3c(nc2c1)CCCCC3
    14% | -5%
CC1CCN(c2ccc(C(=O)NCc3ccc4c(c3)OCO4)cc2[N+](=O)[O-])CC1
    0% | -8%
Cc1nnc(NC(=O)CCCCCN2C(=O)C3C4C=CC(C4)C3C2=O)s1 (configuration not stated)
    -3% | -3%
CC(Oc1ccc2c3c(c(=O)oc2c1)CCC3)C(=O)NCCN1CCOCC1 (configuration not stated)
    -6% | -1%
CN1CCN(c2ccc(NC(=O)c3ccc([N+](=O)[O-])o3)cc2Cl)CC1
    ? | -5%
COc1cccc(-n2nnc3c(=O)n(CC(=O)Nc4ccccc4C)cnc32)c1
    1% | -7%
CC(C)Oc1ccc(C(=O)Nc2c3c(nn2C(C)(C)C)CS(=O)(=O)C3)cc1
    -2% | -5%
COCCNC(=O)c1ccccc1NS(=O)(=O)c1ccc(Br)s1
    14% | -4%
CCn1c(SCC(=O)NNC(=O)c2ccco2)nnc1-c1ccco1
    19% | -1%
O=C(/C=C/c1ccc(Cl)cc1)N(Cc1ccccc1)C1CCS(=O)(=O)C1 (configuration not stated)
    -1% | 2%
O=S(=O)(NC1C2CC3CC(C2)CC1C3)c1ccccc1 (configuration not stated)
    -2% | 3%
CCCCOc1ccccc1NC(=O)CC1SC(=NCC)N(CC)C1=O (configuration not stated)
    -9% | 0%
COc1ccccc1OCC(=O)Sc1ccc(C)cc1
    0% | -3%
CCc1ccccc1NC(=O)c1cnn(-c2ccccc2)c1C
    -3% | -1%
CC(=O)OC1CC2C(C)(C)C(=O)CC[C@]2(C)C2CC[C@@]3(C)C(c4ccoc4)OC(=O)C4OC43[C@]12C (some centres not stated)
    . | -12%
CCN1CCCC(Sc2nc3c([nH]2)c(=S)n(C)c(=O)n3C)C1 (configuration not stated)
    -6% | -4%
CCOC(=O)COc1ccc([N+](=O)[O-])cc1-c1ccnc2cc(-c3ccc(Cl)cc3)nn12
    -9% | 1%
Cc1cc(=O)oc2cc(OCCCN3C(=O)c4ccccc4C3=O)ccc12
    6% | 20%
O=C(Nc1nc2n(n1)C(c1ccccc1)CC(c1ccc(Cl)cc1)N2)c1ccco1 (configuration not stated)
    -9% | -1%
OCCCNc1ncnc2sc(-c3ccccc3)cc12
    ? | -18%
Cc1ccc(S(=O)(=O)C(C#N)=C2N(C)c3ccccc3N2C)cc1
    0% | -3%
Cc1ccc(OC(=O)C(F)(F)F)c2c1NCCC2
    1% | 1%
CC1(C)CC(=O)C2=C(C1)OC(N)=C(C#N)C2c1ccccc1 (configuration not stated)
    -16% | -4%
CCOC(=O)CC(c1ccc([N+](=O)[O-])cc1)n1c(C)ccc1C (configuration not stated)
    -27% | -14%
COC(=O)Cc1c(C)nc2nc(-c3ccc(OC)cc3)[nH]n2c1=O
    -4% | -4%
COCC(C)NC(=O)CSc1ncnc2sc(-c3ccccc3)cc12 (configuration not stated)
    -5% | -6%
O=C(COC(=O)c1cccc(S(=O)(=O)NCc2ccccc2)c1)NC1CC1
    -1% | -2%
O=S(=O)(Nc1nc2ccccc2nc1N1CCN(c2ccccn2)CC1)c1ccc(Cl)cc1
    9% | -5%
COc1ccc(CNC(=O)c2cc3c(-c4ccccc4F)nn(C)c3s2)cc1
    -9% | -5%
COc1ccc(C(=O)NCC2OCCc3ccccc32)c(O)c1 (configuration not stated)
    9% | 1%
CCCOc1ccc(Oc2nc(NCC(C)C)nc(N3CCOCC3)n2)nn1
    18% | -2%
Cc1cc(C)c(Cn2c3ccccc3c3cnn(CC(=O)NCCc4ccccc4)c(=O)c32)c(C)c1
    9% | -8%
O=[N+]([O-])c1ccc(C[n+]2cccc3c4ccccc4ccc32)cc1
    -4% | -4%

Among those listed so far, these have a Cl atom.
Second line of a record: FEN1 inhibitor | GCN5L2 inh
CC1=C(C(=O)Nc2ccc(Cl)cc2)C(c2cccs2)n2nc(SCc3cccc(C)c3)nc2N1 (configuration not stated)
    -5% | -3%
Cc1cc(C)c(/C=C/c2onc(C)c2S(=O)(=O)N2CCC(C(=O)N3CCN(c4ccc(Cl)cc4)CC3)CC2)c(C)c1
    -6% | -12%
CC(Sc1nc2cc(Cl)ccc2s1)C(=O)Nc1cccc(S(=O)(=O)N2CCOCC2)c1 (configuration not stated)
    -5% | -6%
CN1CCN(c2ccc(NC(=O)c3ccc([N+](=O)[O-])o3)cc2Cl)CC1
    ? | -5%
O=C(/C=C/c1ccc(Cl)cc1)N(Cc1ccccc1)C1CCS(=O)(=O)C1 (configuration not stated)
    -1% | 2%
CCOC(=O)COc1ccc([N+](=O)[O-])cc1-c1ccnc2cc(-c3ccc(Cl)cc3)nn12
    -9% | 1%
O=C(Nc1nc2n(n1)C(c1ccccc1)CC(c1ccc(Cl)cc1)N2)c1ccco1 (configuration not stated)
    -9% | -1%
O=S(=O)(Nc1nc2ccccc2nc1N1CCN(c2ccccn2)CC1)c1ccc(Cl)cc1
    9% | -5%

(more compounds)
Second line of a record: FEN1 inhibitor | GCN5L2 inh
CCNC(=O)NC(=O)C(C)Oc1ccc(C(=O)OC)cc1 (configuration not stated)
    6% | 0%
COc1cc(C)c(Cl)c(C)c1S(=O)(=O)NCc1ccc2c(c1)OCO2
    2% | -1%
COc1ccccc1C1CCN(C(=S)Nc2ccc(Br)cc2)CC1
    -5% | -7%
CCOC(=O)c1ccc(NC(=O)Cn2cnc(S(=O)(=O)N3CCCC3)c2)cc1
    22%&0% | ?
COc1ccc(Br)c(C(=O)OCc2cc(=O)oc3cc(C)ccc23)c1
    1% | -4%
Cc1nc(SCC(=O)Nc2ccc(N3CCOCC3)cc2)nc(C)c1C
    3% | 0%
Cc1ccc(Cl)cc1NC(=O)c1csnn1
    -2% | -8%
Nc1c2c(nc3ccccc13)CCCC2
    ? | -10%
COc1ccc(-c2cc(C(=O)O)c(C)o2)cc1OC
    8% | -14%
CCCCCCn1c(SCC(C)C)nc2c1c(=O)[nH]c(=O)n2C
    5% | 1%
COc1ccccc1S(=O)(=O)Cc1ccc(C(=O)NCCN2CCCCCC2)o1
    -2% | -8%
COC(=O)c1ccc(NC(=O)Nc2ccc(F)c(Cl)c2)cc1
    -12% | -9%
O=C(N=c1ccn(-c2nc3ccccc3nc2NS(=O)(=O)c2ccccc2)cc1)c1ccccc1Cl
    -8% | -13%
CCCCn1c(=O)c2oc3ccccc3c2n(CC(=O)Nc2cccc(Cl)c2C)c1=O
    -7% | -4%
O=C(CCc1nnc2ccc(NCc3ccco3)nn12)N1CCN(c2ccc(F)cc2)CC1
    -16% | -9%

These rows are one share of the data; most or all hits stand in other tables.
